Screening data (PubChem)
PABP polyA inh: PABP-poly(A) binding inhibition; P11940; PABP-poly(A) RNA binding, fluorescence polarization; inhibition, % at 35 µM; 290,000 tested, 1% active;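 active means 50% or more with normal probe brightness, or confirmed in later tests; about a fifth of its hits are not listed in these tables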;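 further: calls also rest on retests at 20 µM and on dose response follow-up; controls were probe without protein and protein plus probe with vehicle; some compounds called inactive have numbers as strong as hits; many hits fall short of the cut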
Target sequence (P11940 whole entry, looked up): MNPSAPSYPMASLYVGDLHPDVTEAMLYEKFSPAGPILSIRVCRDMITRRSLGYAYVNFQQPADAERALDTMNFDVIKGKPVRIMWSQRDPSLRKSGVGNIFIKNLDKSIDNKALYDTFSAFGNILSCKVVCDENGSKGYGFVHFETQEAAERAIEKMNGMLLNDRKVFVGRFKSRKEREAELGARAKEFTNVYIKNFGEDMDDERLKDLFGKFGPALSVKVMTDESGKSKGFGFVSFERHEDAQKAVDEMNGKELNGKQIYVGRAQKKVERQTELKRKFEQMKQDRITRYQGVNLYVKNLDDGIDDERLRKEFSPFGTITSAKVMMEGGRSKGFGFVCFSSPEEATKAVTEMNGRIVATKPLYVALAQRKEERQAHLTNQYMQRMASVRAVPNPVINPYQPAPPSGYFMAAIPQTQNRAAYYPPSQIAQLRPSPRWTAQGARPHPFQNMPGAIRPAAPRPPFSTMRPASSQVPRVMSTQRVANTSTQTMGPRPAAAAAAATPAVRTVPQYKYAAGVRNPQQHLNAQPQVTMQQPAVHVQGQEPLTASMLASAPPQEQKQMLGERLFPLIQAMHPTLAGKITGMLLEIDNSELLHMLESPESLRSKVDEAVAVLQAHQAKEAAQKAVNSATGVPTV
Env fusion inh: inhibitors of HIV Env-mediated cell fusion; 360,000 tested, 1.1% active; inhibition, % at 12.3 µM; AID 651610; HeLa-JRFL Env/CEM21 cell fusion, luciferase;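 active means mean replicate inhibition score of at least 50 and every replicate individually at or above 50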;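 further: 0% = plate neutral controls and 100% = maraviroc near 300 nM; one replicate is shown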
MT1-MMP act inh: blocks activation of human MT1-MMP; P50281; HT1080 RFP-PRO-GFP cells, GFP/RFP ratio fluorescence, overnight; percent of plate control window, DMSO zero; GFP/RFP ratio change, % at 20 µM; 360,000 tested, 0.061% active;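 active means GFP/RFP ratio change of at least 30% with cell ATP level not reduced by more than half and red fluorescence within 50% of control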; further: strong numbers were not always called active
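Assay system: RFP-PRO-GFP reporter HT1080 cells; read-out basis: GFP/RFP fluorescence ratio; benchmarks: DMSO wells and RFP-L50D-GFP cells; doses: 20 µM single dose, 1% DMSO; schedule: overnight cell settling, then overnight compound exposure, 37 °C, 5% CO2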
UUG fidelity: alters start codon recognition fidelity in yeast | S. cerevisiae UUG-firefly luciferase reporter, luminescence/redox ratio | activity score, % at 18.7 µM | 350,000 tested, 0.13% active;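 active means replicate mean at a twofold rise or more, about +100% in these data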;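 further: firefly luciferase made from a UUG start codon reports start codon fidelity; reporter light over untreated wells divided by growth signal over untreated wells; some hits fall short of that in this replicate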
Rce1 inh: blocks yeast Ras-converting enzyme; yeast membranes, quenched prenylated peptide cleavage fluorescence; calls only; 290,000 tested, 0.27% active; AID 2563;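 active means fall in fluorescence gain of 50% or more versus controls, with final raw signal at or below 3038400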;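 further: plate controls were neutral control wells for no effect and wells lacking membranes for full effect; tested at 10 µM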
Target sequence (Q03530 whole entry, looked up): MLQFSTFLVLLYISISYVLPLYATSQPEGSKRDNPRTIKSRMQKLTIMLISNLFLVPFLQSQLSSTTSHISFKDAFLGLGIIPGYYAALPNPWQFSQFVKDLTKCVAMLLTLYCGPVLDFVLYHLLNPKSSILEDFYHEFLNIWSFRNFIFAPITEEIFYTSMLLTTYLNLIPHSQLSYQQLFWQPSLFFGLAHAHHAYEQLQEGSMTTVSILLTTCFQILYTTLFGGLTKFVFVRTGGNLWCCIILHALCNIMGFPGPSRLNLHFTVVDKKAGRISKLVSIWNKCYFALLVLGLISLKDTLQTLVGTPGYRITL
CSC inhib: blocks cancer stem cells; cancer stem cell-like cells viability, luminescence; inhibition, % at 7.5 µM; 300,000 tested, 1.1% active; AID 2717;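 active means mean at 75% or more and at least half the replicates too; tested in HMLE shEcad cells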;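 further: 0% = median of negative and 100% = median of positive control wells; the first replicate is given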
eIF4H FP inh: inhibitors of RNA binding by human eIF4H. Q15056. eIF4H fluorescence polarization binding assay. inhibition, % at 35 µM. AID 2012. 290,000 tested, 0.94% active;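 active means 50% or more with normal probe brightness, or confirmed in later tests; about a fifth of its hits are not listed in these tables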;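 further: calls also rest on retests at 20 µM and on dose response follow-up; 0% = protein and probe with vehicle and 100% = probe without protein; strong numbers were not always called active; many hits fall short of the cut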
eIF4H FP inh retest: recorded beside eIF4H FP inh, whose call it bears; inhibition, %; compound at 20 µM; confirmation average;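 mean of two retest wells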
PABP polyA inh retest: second read-out of PABP polyA inh, no call of its own (marks repeat the call); inhibition, %; compound at 20 µM; confirmation repeats;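 mean of two retest wells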
MT1-MMP act inh RFP: second read-out of MT1-MMP act inh, no call of its own (marks repeat the call); RFP signal change, %; measured here: RFP expression control read;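 0 = vehicle wells; hits needed this value within 50% of zero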
* hit, by the source's call; & = joins results of further samples.

What do the screens show for `CCOc1ncccc1C(=O)OCC(=O)Nc1ccc(C)c(S(=O)(=O)N(C)C)c1`?
PABP polyA inh: 1.9; Env fusion inh: 4.6; MT1-MMP act inh: 3.0; UUG fidelity: -1.0; Rce1 inh: inactive; CSC inhib: -10.1; eIF4H FP inh: -2.7; MT1-MMP act inh RFP: 2.1

How did C=CCc1ccccc1OCC(O)CN1CCN(CCN2C(=O)c3cccc4cccc(c34)C2=O)CC1 (stereo unspecified) do in these assays?
PABP polyA inh: 7.5; Env fusion inh: -22.3; MT1-MMP act inh: 12.2; UUG fidelity: -9.5; Rce1 inh: inactive; CSC inhib: 60.2; eIF4H FP inh: 7.1; MT1-MMP act inh RFP: -11.0

How did CC1(C)CC(=O)c2sc(NS(=O)(=O)c3cc(Cl)ccc3Cl)nc2C1 do in these assays?
PABP polyA inh: 6.7; Env fusion inh: -60.7; MT1-MMP act inh: -5.7; Rce1 inh: inactive; CSC inhib: -13.0; eIF4H FP inh: 1.5; MT1-MMP act inh RFP: -4.2

Results for O=C(OCC(=O)C12CC3CC(CC(C3)C1)C2)c1cccnc1 ?
PABP polyA inh: -4.4; Env fusion inh: 0.6; MT1-MMP act inh: 0.9; Rce1 inh: inactive; CSC inhib: -2.6; eIF4H FP inh: 3.6; MT1-MMP act inh RFP: 3.4

What do the screens show for `Cc1ccc(Cn2ccc(NC(=O)c3noc4c3CCCCC4)n2)cc1`?
PABP polyA inh: -15.0; Env fusion inh: -23.2; MT1-MMP act inh: -0.1; UUG fidelity: -9.7; Rce1 inh: inactive; CSC inhib: -4.4; eIF4H FP inh: 5.7; MT1-MMP act inh RFP: -7.4

What do the screens show for `COc1cc(C2/C(=C(\O)c3ccc4c(c3)CC(C)O4)C(=O)C(=O)N2CCN2CCOCC2)cc(OC)c1OC` (stereo unspecified)?
PABP polyA inh: 5.2; Env fusion inh: 2.2; MT1-MMP act inh: 0.0; UUG fidelity: -16.8; Rce1 inh: inactive; CSC inhib: -10.7; eIF4H FP inh: 0.3; MT1-MMP act inh RFP: 0.2

Results for COc1ccc(C(=O)Nc2ccc(N3CCN(C(=O)C(C)C)CC3)cc2)cc1[N+](=O)[O-] ?
PABP polyA inh: -1.1; MT1-MMP act inh: 3.5; Rce1 inh: inactive; CSC inhib: -13.5; eIF4H FP inh: -3.5; MT1-MMP act inh RFP: 4.4

How did O=C(CCn1cccn1)Nc1ccc2c(c1)OCO2 do in these assays?
PABP polyA inh: -5.1; Env fusion inh: -7.0; MT1-MMP act inh: 0.4; UUG fidelity: -7.1; Rce1 inh: inactive; CSC inhib: 8.3; eIF4H FP inh: 0.5; MT1-MMP act inh RFP: 2.0

How did CCCCC(=O)Nc1ccc(C(=O)NCc2ccncc2)cc1 do in these assays?
PABP polyA inh: 2.5; Env fusion inh: 6.8; MT1-MMP act inh: -6.3; UUG fidelity: -12.5; Rce1 inh: inactive; CSC inhib: -6.7; eIF4H FP inh: -0.3; MT1-MMP act inh RFP: -3.9

What do the screens show for `COCCOC1CCN(C(=O)C2CCC(=O)N(Cc3cccc(F)c3)C2)CC1` (stereo unspecified)?
PABP polyA inh: 10.6; Env fusion inh: 7.5; UUG fidelity: -6.5; Rce1 inh: inactive; CSC inhib: 7.0; eIF4H FP inh: -7.3

Results for CCC(=O)Nc1nc(C)cc(SCC(=O)OC)n1 ?
PABP polyA inh: -4.1; MT1-MMP act inh: -2.7; UUG fidelity: -48.6; Rce1 inh: inactive; CSC inhib: 1.8; eIF4H FP inh: 8.8; MT1-MMP act inh RFP: 0.9

Results for CCCOc1ccc(-c2nc(C#N)c(NCCCn3ccnc3)o2)cc1 ?
PABP polyA inh: -8.7; Env fusion inh: -10.0; MT1-MMP act inh: 5.0; UUG fidelity: -18.4; Rce1 inh: inactive; CSC inhib: 45.4; eIF4H FP inh: -0.9; MT1-MMP act inh RFP: -1.3

Results for O=C(CCNC(=O)c1ccccc1Cl)NCCc1ccc(Cl)cc1 ?
PABP polyA inh: 10.6; Env fusion inh: 11.2; MT1-MMP act inh: -1.8; UUG fidelity: -1.5; Rce1 inh: inactive; CSC inhib: -10.3; eIF4H FP inh: 0.1; MT1-MMP act inh RFP: -1.1

How did C=CCNC(=O)CN1C(=O)C2C3c4ccccc4C(c4ccccc43)C2C1=O (stereo unspecified) do in these assays?
PABP polyA inh: 9.7; Env fusion inh: -9.1; MT1-MMP act inh: -2.2; Rce1 inh: inactive; CSC inhib: -10.6; eIF4H FP inh: -1.0; MT1-MMP act inh RFP: 3.7

Results for O=C(Nc1ccccc1)c1ccc2snnc2c1 ?
PABP polyA inh: 1.3; Env fusion inh: -9.4; MT1-MMP act inh: 3.3; Rce1 inh: inactive; CSC inhib: -0.3; eIF4H FP inh: -8.0; MT1-MMP act inh RFP: 2.7

What do the screens show for `C(=N\n1cnnc1)/c1ccc2ncccc2c1`?
PABP polyA inh: -0.5; Env fusion inh: -120.2; MT1-MMP act inh: 1.4; UUG fidelity: -19.3; Rce1 inh: inactive; CSC inhib: 6.1; eIF4H FP inh: 2.4; MT1-MMP act inh RFP: 1.6

How did O=C(NCc1ccccc1)N1CCNCC1 do in these assays?
PABP polyA inh: 8.4; Env fusion inh: -3.2; MT1-MMP act inh: -1.7; UUG fidelity: -4.3; Rce1 inh: inactive; CSC inhib: -12.8; eIF4H FP inh: 6.1; MT1-MMP act inh RFP: 2.8

How did CC(=O)c1c(C)[nH]c(C(=O)COc2ccc3ccc(=O)oc3c2)c1C do in these assays?
Env fusion inh: -0.4; MT1-MMP act inh: 5.4; Rce1 inh: inactive; CSC inhib: -5.9; MT1-MMP act inh RFP: -10.5

What do the screens show for `O=S(Cc1ccccc1)CC(O)(c1ccccc1)c1ccccc1` (stereo unspecified)?
PABP polyA inh: -7.8; Env fusion inh: 12.2; MT1-MMP act inh: -3.0; UUG fidelity: -4.3; Rce1 inh: inactive; CSC inhib: -5.8; eIF4H FP inh: 4.1; MT1-MMP act inh RFP: 1.7

What do the screens show for `CCCCNC(=O)c1onc(CSc2cccc(Cl)c2)c1C(=O)O`?
PABP polyA inh: 8.3; Env fusion inh: -62.4; MT1-MMP act inh: 3.5; UUG fidelity: 5.2; Rce1 inh: inactive; CSC inhib: 11.0; eIF4H FP inh: -13.8; MT1-MMP act inh RFP: 5.9

Retrieved by compound from above, 2 records:
How did CC1(C)CC(=O)c2sc(NS(=O)(=O)c3cc(Cl)ccc3Cl)nc2C1 do in these assays?
PABP polyA inh: 6.7; Env fusion inh: -60.7; MT1-MMP act inh: -5.7; Rce1 inh: inactive; CSC inhib: -13.0; eIF4H FP inh: 1.5; MT1-MMP act inh RFP: -4.2

Results for COc1ccc(C(=O)Nc2ccc(N3CCN(C(=O)C(C)C)CC3)cc2)cc1[N+](=O)[O-] ?
PABP polyA inh: -1.1; MT1-MMP act inh: 3.5; Rce1 inh: inactive; CSC inhib: -13.5; eIF4H FP inh: -3.5; MT1-MMP act inh RFP: 4.4

(more compounds)
How did COc1ccccc1C=NNC(=O)NN=Cc1ccccc1OC do in these assays?
Env fusion inh: -13.0; MT1-MMP act inh: -0.1; UUG fidelity: -17.5; MT1-MMP act inh RFP: -0.9

How did O=C(CN1CCN(Cc2ccccc2)CC1)Nc1ccccc1 do in these assays?
PABP polyA inh: -0.9; Env fusion inh: 18.9; MT1-MMP act inh: -2.5; UUG fidelity: 1.1; Rce1 inh: inactive; CSC inhib: -14.0; eIF4H FP inh: 0.6; MT1-MMP act inh RFP: 3.9

How did Cc1ccccc1OCC(=O)Nc1sc2c(c1C#N)CC(C)(C)NC2(C)C do in these assays?
PABP polyA inh: 2.4; Env fusion inh: 9.5; MT1-MMP act inh: 3.1; UUG fidelity: -6.5; Rce1 inh: inactive; CSC inhib: 18.4; eIF4H FP inh: -10.3; MT1-MMP act inh RFP: -2.5

Results for CCc1ccccc1NC(=O)CN(C)C(=O)c1cccc(S(=O)(=O)N2CCCCCC2)c1 ?
MT1-MMP act inh: 2.6; UUG fidelity: 15.1; CSC inhib: -18.7; MT1-MMP act inh RFP: 1.9

What do the screens show for `O=C(Nc1ccc2c(c1)OCO2)c1c(Cl)nc2sccn12`?
PABP polyA inh: 92.9; MT1-MMP act inh: -0.6; UUG fidelity: 21.9; CSC inhib: -6.5; eIF4H FP inh: -5.7; eIF4H FP inh retest: 4.7; PABP polyA inh retest: 12.0; MT1-MMP act inh RFP: 2.8

What do the screens show for `Cc1ccnc2c1ccc1cccnc12`?
Env fusion inh: -199.3; MT1-MMP act inh: 2.5; UUG fidelity: -57.4; MT1-MMP act inh RFP: -1.2

How did COc1ccccc1N1CCN(C(=O)C2CCN(S(=O)(=O)c3ccc4c(c3)CC(C)N4C(=O)C3CC3)CC2)CC1 (stereo unspecified) do in these assays?
PABP polyA inh: -2.4; Env fusion inh: 16.8; MT1-MMP act inh: 6.2; UUG fidelity: -10.9; Rce1 inh: inactive; CSC inhib: 2.5; eIF4H FP inh: -13.0; MT1-MMP act inh RFP: -11.4

How did Cc1ccc(Cl)cc1NC1=C/C(=N\S(=O)(=O)c2cccs2)c2ccccc2C1=O do in these assays?
PABP polyA inh: -5.8; Env fusion inh: 112.3*; MT1-MMP act inh: -15.2&0.3; UUG fidelity: 7.0&-1.1; Rce1 inh: inactive; CSC inhib: 101.4*; eIF4H FP inh: -10.7; MT1-MMP act inh RFP: -30.1&-34.9

What do the screens show for `COc1ccccc1C(=O)Nc1ccc(C(=O)O)cc1`?
PABP polyA inh: -2.4; Env fusion inh: -18.6; MT1-MMP act inh: -3.8; UUG fidelity: -11.2; Rce1 inh: inactive; CSC inhib: -13.4; eIF4H FP inh: -9.6; MT1-MMP act inh RFP: 0.6

Results for CN(Cc1ccccc1)C(=O)C1CCCN(c2ncnc3c2nc2n3CCCCC2)C1 (stereo unspecified) ?
PABP polyA inh: 5.9; Env fusion inh: -5.3; MT1-MMP act inh: -4.1; UUG fidelity: -10.6; Rce1 inh: inactive; CSC inhib: 3.9; eIF4H FP inh: -6.5; MT1-MMP act inh RFP: -2.4

How did CCOc1cc(/C=N\Nc2nc(Nc3ccccc3)nc(N3CCOCC3)n2)ccc1OC(=O)c1ccco1 do in these assays?
PABP polyA inh: 63.7; Env fusion inh: 2.0; MT1-MMP act inh: 5.9; Rce1 inh: inactive; CSC inhib: 12.0; eIF4H FP inh: 3.4; eIF4H FP inh retest: -10.2; PABP polyA inh retest: 0.4; MT1-MMP act inh RFP: -2.2

What do the screens show for `OCCCNc1nc(-c2ccccc2)nc2c1oc1ccccc12`?
PABP polyA inh: 8.6; Env fusion inh: 18.8; MT1-MMP act inh: -1.5; Rce1 inh: inactive; CSC inhib: -5.9; eIF4H FP inh: -1.5; MT1-MMP act inh RFP: -0.5

How did CCn1ncc(CN2CCCC(C(=O)c3cccc(OC(C)C)c3)C2)c1C (stereo unspecified) do in these assays?
PABP polyA inh: -3.9; Env fusion inh: -14.5; MT1-MMP act inh: 0.3; UUG fidelity: -12.5; Rce1 inh: inactive; CSC inhib: 24.1; eIF4H FP inh: -8.0; MT1-MMP act inh RFP: 1.0

What do the screens show for `C/C(CC(C)C)=N/Nc1ccc([N+](=O)[O-])cc1[N+](=O)[O-]`?
PABP polyA inh: -8.4; Env fusion inh: 0.0; MT1-MMP act inh: 27.0; UUG fidelity: 0.5; Rce1 inh: inactive; CSC inhib: -2.0; eIF4H FP inh: -0.4; MT1-MMP act inh RFP: 15.6

Results for COc1ccc(NC(=O)c2cc(S(=O)(=O)N3CCc4ccccc43)cn2C)cc1OC ?
PABP polyA inh: 8.5; Env fusion inh: -10.6; MT1-MMP act inh: 5.1; UUG fidelity: -14.8; Rce1 inh: inactive; CSC inhib: -13.8; eIF4H FP inh: -10.8; MT1-MMP act inh RFP: 2.0

What do the screens show for `Cc1ccc([C@H]2C[C@H](n3cc(-c4ccc(F)cc4)nn3)[C@@H](O)CN2C(=O)C2CCCCC2)cc1`?
Env fusion inh: 21.6; MT1-MMP act inh: 0.4; UUG fidelity: 7.9; MT1-MMP act inh RFP: 3.8
